# Screening data deposited in PubChem by several laboratories.
# eIF4H FP inh – inhibitors of RNA binding by human eIF4H | actives 0.94% (n = 290,000) | eIF4H fluorescence polarization binding assay | Q15056 | AID 2012 | inhibition, % at 35 µM;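 active = 50% or more with normal probe brightness, or confirmed in later tests; about a fifth of its hits are not listed in these tables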;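 also: calls also rest on retests at 20 µM and on dose response follow-up; 0% = protein and probe with vehicle and 100% = probe without protein; strong numbers were not always called active; many hits fall short of the cut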
# Env fusion inh – blocks HIV Env-driven cell-cell fusion | HeLa-JRFL Env/CEM21 cell fusion, luciferase | inhibition, % at 12.3 µM | actives 1.1% (n = 360,000) | AID 651610;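 active = mean replicate inhibition score of at least 50 and every replicate individually at or above 50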;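 also: 0% = plate neutral controls and 100% = maraviroc near 300 nM; one replicate is shown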
# Rce1 inh – inhibitors of yeast Ras-converting enzyme; yeast membranes, quenched prenylated peptide cleavage fluorescence; calls only; Q03530; actives 0.27% (n = 290,000); AID 2563;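 active = fall in fluorescence gain of 50% or more versus controls, with final raw signal at or below 3038400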;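 also: plate controls were neutral control wells for no effect and wells lacking membranes for full effect; tested at 10 µM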
# Target sequence (Q03530 whole entry, looked up): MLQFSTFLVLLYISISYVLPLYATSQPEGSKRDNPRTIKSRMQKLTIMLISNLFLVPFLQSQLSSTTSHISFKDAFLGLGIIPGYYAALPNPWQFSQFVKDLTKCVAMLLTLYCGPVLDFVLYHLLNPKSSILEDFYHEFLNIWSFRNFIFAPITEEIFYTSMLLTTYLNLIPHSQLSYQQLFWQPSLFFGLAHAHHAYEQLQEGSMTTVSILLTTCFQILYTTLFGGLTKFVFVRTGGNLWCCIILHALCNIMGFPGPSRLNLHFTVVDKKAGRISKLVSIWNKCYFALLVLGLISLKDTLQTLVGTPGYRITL
# Yeast UUG start – modulators of start codon recognition fidelity in yeast. activity score, % at 18.7 µM. S. cerevisiae UUG-firefly luciferase reporter, luminescence/redox ratio. actives 0.13% (n = 350,000);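 active = replicate mean at a twofold rise or more, about +100% in these data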;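 also: firefly luciferase made from a UUG start codon reports start codon fidelity; reporter light over untreated wells divided by growth signal over untreated wells; some hits fall short of that in this replicate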
# CSC inhib – blocks cancer stem cells. cancer stem cell-like cells viability, luminescence. inhibition, % at 7.5 µM. actives 1.1% (n = 300,000);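 active = mean at 75% or more and at least half the replicates too; tested in HMLE shEcad cells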;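 also: 0% = median of negative and 100% = median of positive control wells; the first replicate is given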
# MT1-MMP act inh – inhibitors of human MT1-MMP activation; AID 651647; actives 0.061% (n = 360,000); GFP/RFP ratio change, % at 20 µM; HT1080 RFP-PRO-GFP cells, GFP/RFP ratio fluorescence, overnight; percent of plate control window, DMSO zero;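 active = GFP/RFP ratio change of at least 30% with cell ATP level not reduced by more than half and red fluorescence within 50% of control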; also: strong numbers were not always called active
#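 Material: RFP-PRO-GFP reporter HT1080 cells. Dosing: single-point 20 µM compound, 1% DMSO. Controls: DMSO and RFP-L50D-GFP cell wells. Timing: cells overnight before dosing, compound overnight, 37 °C, 5% CO2. Measure: GFP/RFP fluorescence ratio.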
# PABP polyA inh – blocks human PABP binding to poly(A) RNA; P11940; fluorescence polarization; inhibition, % at 35 µM; AID 2014; actives 1% (n = 290,000);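 active = 50% or more with normal probe brightness, or confirmed in later tests; about a fifth of its hits are not listed in these tables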;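 also: calls also rest on retests at 20 µM and on dose response follow-up; controls were probe without protein and protein plus probe with vehicle; some compounds called inactive have numbers as strong as hits; many hits fall short of the cut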
# Target sequence (P11940 whole entry, looked up): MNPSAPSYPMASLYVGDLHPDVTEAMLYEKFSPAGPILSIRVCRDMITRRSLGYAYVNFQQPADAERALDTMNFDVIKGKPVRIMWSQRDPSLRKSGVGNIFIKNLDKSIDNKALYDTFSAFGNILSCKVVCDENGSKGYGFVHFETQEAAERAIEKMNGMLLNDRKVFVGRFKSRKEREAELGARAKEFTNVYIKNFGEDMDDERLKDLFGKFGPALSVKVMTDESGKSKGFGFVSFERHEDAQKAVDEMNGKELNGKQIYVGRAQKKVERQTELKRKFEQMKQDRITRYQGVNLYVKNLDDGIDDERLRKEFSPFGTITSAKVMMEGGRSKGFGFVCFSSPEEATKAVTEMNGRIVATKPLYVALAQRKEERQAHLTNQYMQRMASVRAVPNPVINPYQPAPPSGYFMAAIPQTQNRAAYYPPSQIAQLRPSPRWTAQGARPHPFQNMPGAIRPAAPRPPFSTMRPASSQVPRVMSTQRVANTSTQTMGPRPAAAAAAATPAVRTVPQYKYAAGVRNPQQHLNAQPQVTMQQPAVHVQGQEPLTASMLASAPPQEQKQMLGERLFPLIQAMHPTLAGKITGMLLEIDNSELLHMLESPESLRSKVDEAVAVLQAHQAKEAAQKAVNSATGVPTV
# eIF4H FP inh retest – also measured in eIF4H FP inh; calls as there; inhibition, %; compound at 20 µM; confirmation average;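 mean of two retest wells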
# PABP polyA inh retest – recorded beside PABP polyA inh, whose call it bears; inhibition, %; compound at 20 µM; confirmation repeats;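 mean of two retest wells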
# MT1-MMP act inh RFP – further read-out of MT1-MMP act inh, marked with its call; RFP signal change, %; measured here: RFP expression control read;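 0 = vehicle wells; hits needed this value within 50% of zero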
# Starred values were filed as active, the others as inactive; i = inactive; / = not tested or not shown; + = active, no number.
SMILES,eIF4H FP inh,Env fusion inh,Rce1 inh,Yeast UUG start,CSC inhib,MT1-MMP act inh,MT1-MMP act inh RFP,PABP polyA inh,others
O=C(NCc1ccncc1)C(=O)NCc1ccco1,-8,18,i,/,0,1,6,-1,
CCOC(=O)N1CCN(S(=O)(=O)c2ccc3c(c2)CC(C)N3C(C)=O)CC1 (stereo not given),-1,1,i,16,0,2,-3,5,
CCC(C(N)=O)N1C(=O)C2C3CCC(C3)C2C1=O (stereo not given),/,0,/,13,/,-4,-3,/,
Clc1ccc(-c2nnc(NCc3ccccc3)c3ccccc23)cc1,-5,-14,i,-27,40,1,-6,-5,
O=C1CCCN1CC(O)CS(=O)(=O)Cc1ccccc1Cl (stereo not given),-5,-5,i,-25,13,1,5,7,
Cc1ccc(S(=O)(=O)N2CCC(C(=O)OC(C)C(=O)NC(N)=O)CC2)cc1C (stereo not given),2,5,i,/,-11,-5,0,35,
CC(=O)c1c(O)cc(=O)n(-c2ccccc2)c1-c1ccc(Cl)cc1,-3,11,i,/,4,14,6,7,
Cc1onc(C(=O)NCc2ccccn2)c1[N+](=O)[O-],3,3,i,/,8,1,6,9,
COC(=O)CCN(C(=O)c1ccc(N2CCCCC2)c([N+](=O)[O-])c1)c1ccccn1,-6,-4,i,/,9,-1,-1,-5,
CCOc1cc(NS(=O)(=O)c2ccc(Cl)cc2)c(OCC)cc1NC(=O)CC(C)C,-6,-16,i,-8,-2,-4,-3,0,
Cc1cc(C)cc(NCc2cc3c(cc2[N+](=O)[O-])OCO3)c1,1,/,i,-7,-1,5,-1,-4,
COc1ccc2cc(/C=C3\SC(=S)NC3=O)c(N3CCOCC3)nc2c1,17,33,i,/,34,-22,-12,-5,
COC(=O)CSc1nnc(C)n1-c1cccc(OC)c1,4,-30,i,6,-7,-2,1,-6,
COc1ccc(-n2ccnc2CN2CCN(C3CCCC3)C(CCO)C2)cc1 (stereo not given),-4,9,i,/,-6,-2,1,0,
Cc1ccccc1C(=O)N/N=C1/SCC(=O)N1Cc1ccc2c(c1)OCO2,-1,3,i,-1,-13,-2,1,-5,
COc1ccc(C)cc1NC(=O)C(Sc1nncn1C)c1ccccc1 (stereo not given),-2,10,/,-21,-3,-2,5,2,
O=C(NCC1CCCO1)C(c1cccs1)N(C(=O)c1ccc(-c2ccccc2)[nH]1)C1CCCC1 (stereo not given),-12,/,i,/,8,-10,-10,-2,
Cc1onc(-c2ccccc2)c1C(=O)c1c[nH]c(C(=O)NCc2ccccn2)c1,-1,-9,i,-18,/,3,-9,0,
CC(=O)N/C(=C/c1ccc2c(c1)OCO2)C(=O)O,-4,-11,i,/,-4,4,3,6,
COC(=O)CN1C(c2ccccc2)=Nc2ccc(Cl)cc2C1c1ccccc1 (stereo not given),2,105*,i,-9,-2,-13,-8,-2,
C/C(=N\S(=O)(=O)c1ccc(C)cc1)NC(=S)Nc1ccccc1,-6,-24,i,/,5,0,4,-15,
CCCCc1cc(=O)oc2cc(C)cc(OCC(=O)NC(Cc3ccc(Cl)cc3)C(=O)O)c12 (stereo not given),-8,/,i,-1,2,2,4,8,
COc1ccccc1-c1ccc(C(=O)O)o1,-4,/,i,/,4,-2,4,4,
CCOc1ccccc1C(=O)NCC(=O)NCC(c1ccc(OC)cc1)N1CCOCC1 (stereo not given),/,2,i,-7,-12,4,1,/,
COc1ccc(C(C)=O)cc1COC(=O)CSCC(=O)Nc1ccc(C)cc1,/,-11,i,3,5,0,-1,/,
C/C(=N\NC(=O)c1cccc2ccccc12)c1cccnc1,-4,-217,i,-15,/,0,4,-5,
Cc1cc2c(s1)c1cnn(CC(=O)NCCc3ccccc3)c(=O)c1n2C,-8,10,i,/,-5,/,/,-15,
C=CCNC(=S)N(C1CCCCC1)C1CCCCC1,-2,7,i,-18,0,/,/,-4,
CC(C)C(NS(=O)(=O)c1ccc2c(c1)Cc1cc(S(=O)(=O)NC(C(=O)O)C(C)C)ccc1-2)C(=O)O (stereo not given),7,-6,i,-27,-4,2,3,9,
CCCCOc1ccc(C(C)NC(=O)C2CCCN(S(=O)(=O)CCC)C2)cc1 (stereo not given),1,6,i,2,3,-10,-12,3,
Cc1nc2ccc(S(=O)(=O)CCC(=O)NCc3ccc(Cl)cc3)cc2s1,/,-39,/,1,/,4,-1,/,
CCOC(=O)Cn1cc(C#N)c(=O)[nH]c1=O,11,-3,i,-14,10,1,-1,9,
CC(Oc1cc2oc(=O)c3c(c2cc1Cl)CCCC3)C(=O)NCc1ccncc1 (stereo not given),-4,2,i,-25,29,-2,-3,7,
Oc1ccc(C[C@H]2CNCCN2CCC23CC4CC(CC(C4)C2)C3)cc1,/,2,i,-28,30,0,5,/,
COCCn1c(SCC(=O)Nc2ccccc2F)nc2c([nH]c3ccccc32)c1=O,-10,10,i,-6,-16,-4,0,4,
Cc1ccc(S(=O)(=O)N2[C@@H](c3cccc(C)c3)C(C(=O)O)=C[C@H]2C(C)(C)C)cc1,/,-11,/,0,/,0,2,/,
COc1ccc(OC)c(S(=O)(=O)N2CCC3(CC2)CC(=O)c2ccccc2O3)c1,/,-27,i,9,1,-3,-1,/,
COCc1ccc(-c2c(-c3ccsc3)sc3ccccc23)cc1,/,26,/,-22,14,-4,-3,/,
O=C(Nn1c(Cc2cccs2)nc2ccccc2c1=O)c1ccc(F)c(F)c1,-4,-79,i,-18,-9,-3,3,-2,
O=C(N/N=C/c1c(F)cccc1Cl)c1ccc(Cn2cc(Br)cn2)o1,-2,-1,i,7,-15,-3,0,8,

# Reprinted at random: three records from the list.
SMILES,eIF4H FP inh,Env fusion inh,Rce1 inh,Yeast UUG start,CSC inhib,MT1-MMP act inh,MT1-MMP act inh RFP,PABP polyA inh,others
COc1ccc(-n2ccnc2CN2CCN(C3CCCC3)C(CCO)C2)cc1 (stereo not given),-4,9,i,/,-6,-2,1,0,
CC(=O)c1c(O)cc(=O)n(-c2ccccc2)c1-c1ccc(Cl)cc1,-3,11,i,/,4,14,6,7,
COCCn1c(SCC(=O)Nc2ccccc2F)nc2c([nH]c3ccccc32)c1=O,-10,10,i,-6,-16,-4,0,4,

# Further records follow:
SMILES,eIF4H FP inh,Env fusion inh,Rce1 inh,Yeast UUG start,CSC inhib,MT1-MMP act inh,MT1-MMP act inh RFP,PABP polyA inh,others
CC1CCCCC1NC(=O)CCCN1C(=O)c2ccccc2C1=O (stereo not given),/,4,/,-8,-24,0,1,/,
Nc1cnn(Cc2ccccc2F)c1,-4,7,i,/,32,3,2,-15,
COC(=O)[C@@]12CCCCN1[C@H](c1ccc(-c3cc(C(C)=O)cs3)cc1)[C@H]1C(=O)N(C)C(=O)[C@H]12,/,11,i,-5,-11,2,-13,/,
CC(Cc1c[nH]c2ccccc12)NC(N)=O (stereo not given),0,-11,i,-32,-1,0,3,-14,
Cc1cc(C)cc(N2CC34C=CC(O3)C(C(=O)OCC(=O)NCc3ccco3)C4C2=O)c1 (stereo not given),15,-2,i,-10,-9,1,-1,2,
O=C(Cn1cnc2c(cnn2-c2ccc(Cl)cc2)c1=O)NCCc1ccccc1,-2,/,i,-6,2,1,2,-7,
Cc1cc(C(=O)CSc2nnc(-c3cccs3)o2)c(C)n1-c1ccccc1,69,21,i,-7,66,-3,-4,-7,eIF4H FP inh retest=6;PABP polyA inh retest=4
CC(C)CN(C)C(=O)CCc1nnc(Cc2ccc(-c3ccccc3)cc2)o1,6,34,/,3,-48,-5,-4,4,
CC(NC(=O)c1cccc(Cn2cc([N+](=O)[O-])cn2)c1)c1ccc(C(C)(C)C)cc1 (stereo not given),-1,/,i,7,3,-9,-14,-21,
CCn1c(=S)ccc2ccc(OC)cc21,1,/,i,-22,6,3,5,17,
CCc1ccccc1NC(=O)Nc1ccon1,0,24,i,-14,-5,4,1,5,
CC(C)=C1C2CCC1C1C(=O)N(c3nc(-c4ccc(F)cc4)c(C)s3)C(=O)C21 (stereo not given),6,/,i,-12,55,-3,-2,8,
CS(=O)(=O)c1ccc(NS(=O)(=O)c2ccc(Cl)c(C(=O)NCc3ccco3)c2)cc1,/,-6,/,0,/,-4,0,/,
COC(=O)Nc1sc2c(c1C(=O)NC1CC1)CCCCCC2,-5,/,i,-13,-7,1,-2,1,
c1ccc(-n2nnnc2NCCc2c[nH]c3ccccc23)cc1,-6,-48,i,-19,-5,-2,-7,-4,
COC(=O)c1ccc(NC(=O)c2cccc(C)c2)cc1,-10,-43,i,2,-16,-2,1,-7,
COc1ccc(Cl)cc1C(=O)Nc1ccc(Br)c(C)n1,-8,-13,i,-9,-13,-5,-3,-9,
Fc1ccccc1Cn1nnc(-c2ccc3c(c2)OCO3)n1,37,-112,i,-16,/,7,2,48,
CCOc1ccc(S(=O)(=O)N2CCOCC2)cc1NC(=O)C1CSC2(C)CCC(=O)N12 (stereo not given),/,13,i,-11,-6,-1,0,/,
O=C(CSc1nnc(CNC(=O)c2ccccc2F)o1)Nc1cccc(C(F)(F)F)c1,-12,-3,i,-12,3,4,3,-3,
CCn1cc(/C=C(\NC(=O)c2ccccc2Cl)C(=O)N2CCOCC2)c2ccccc21,6,3,+,-16,-12,0,0,4,
CC(=O)N1CCc2cc(S(=O)(=O)NCCC(=O)Nc3ccc4c(c3)OCCO4)ccc21,4,/,i,-12,4,17,0,-4,
Cc1c(C)c2ccc(OC(C)C(=O)N[C@@H](Cc3c[nH]c4ccccc34)C(=O)O)c(C)c2oc1=O (stereo not given in full),-5,/,i,-3,2,3,3,20,
CCn1c(=O)c(C(=O)NCCc2ccc(OC)c(OC)c2)c(O)c2ccccc21,5,1,i,-21,32,3,2,0,
Cc1ccc(C(C(=O)NC2CCCCC2)N(CC2CCCO2)C(=O)CNC(=O)c2ccco2)cc1 (stereo not given),-9,/,i,-4,-11,2,2,9,
Cc1ccccc1/C=N/NC(=O)c1sccc1C,-1,-79,i,-18,10,-6,1,3,
O=C(NCCc1ccccc1)[C@@H]1CC=C[C@@H]2CCN(C3CCCCC3)C(=O)[C@@H]21,/,14,i,10,-7,-5,-5,/,
O=C(Nc1nnc(CC(=O)N2CCOCC2)s1)C1COc2ccccc2O1 (stereo not given),-9,-137,i,-8,-11,-5,1,-1,
O=C(O)CNC(=O)C1COc2ccccc2O1 (stereo not given),8,/,i,5,-11,1,2,-1,
CC(C)N1CCC2(CC1)Oc1ccc(Br)cc1C1CC(c3cccnc3)=NN12 (stereo not given),4,5,i,/,21,-6,-1,-13,
O=C(Oc1ccccc1)c1cccc2cccnc12,4,/,i,-14,0,2,2,-16,
NC(=O)COC(=O)Cc1coc2cc3c(cc12)CCC3,-6,11,/,/,-16,-6,5,19,
CCOc1cc(CN2CCN(C(=O)c3cccc4ccccc34)CC2)ccc1OC,9,-2,i,-15,-3,2,-9,4,
CC1CCCCC1NC(=O)COn1nnc2ccc(Cl)cc21 (stereo not given),6,/,i,7,-7,2,3,-21,
CS(=O)(=O)N1CCN(c2ccccc2NC(=O)c2cccc3ccccc23)CC1,1,-2,i,-10,-12,1,1,-4,
Cc1cccc(C)c1OCC(=O)Nc1cccc(C(=O)O)c1,2,12,i,/,-22,0,4,6,

# Not a retest: entries from further up.
SMILES,eIF4H FP inh,Env fusion inh,Rce1 inh,Yeast UUG start,CSC inhib,MT1-MMP act inh,MT1-MMP act inh RFP,PABP polyA inh,others
CC1CCCCC1NC(=O)COn1nnc2ccc(Cl)cc21 (stereo not given),6,/,i,7,-7,2,3,-21,
CS(=O)(=O)N1CCN(c2ccccc2NC(=O)c2cccc3ccccc23)CC1,1,-2,i,-10,-12,1,1,-4,
Cc1cccc(C)c1OCC(=O)Nc1cccc(C(=O)O)c1,2,12,i,/,-22,0,4,6,
